Vaccinia inh = blocks a specific stage of Vaccinia orthopoxvirus infection; activity change (mCherry), % (test concentration not listed); Vaccinia-infected cells, mCherry/Venus stage reporter fluorescence; active compounds read low; some inactives read as strong as hits; 89,000 compounds, 0.01% hits;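 active = mCherry past -33% and 40 or more points under the early reporter, replicates agreeing; inconclusive = past -33% without that gap or agreement; tested in A549 cells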;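 note: scaled between vehicle wells and reference inhibitor wells; 23 nL library stock went into each well; one replicate is shown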
Vaccinia inh Venus = second read-out of Vaccinia inh, no call of its own (marks repeat the call); activity change (Venus), %; measured here: Venus reporter, other viral stage;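 negative = less Venus signal; first of two replicates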
Numbers without * were called inactive; u = inconclusive; x = not tested or not shown; & = joins results of further samples. Only part of the results is shown; rates above refer to the full screens.

SMILES | Vaccinia inh | Vaccinia inh Venus
Cc1noc(C)c1S(=O)(=O)Nc1ccc2c(c1)C(=O)N([C@H](C)CO)C[C@@H](C)[C@@H](CN(C)C(=O)Nc1ccc(F)cc1)OCCCC[C@@H](C)O2 | -18 | -18
O=S(=O)(c1ccccc1)N1CCCCN2[C@H](CO)[C@H](c3ccc(C#CC4CCCC4)cc3)[C@H]2C1 | u | x
CCCC(=O)Nc1ccc2c(c1)OC[C@H](C)N(Cc1ccncc1)C[C@@H](C)[C@H](OC)CN(C)C2=O | 1 | -4
O=C(c1cnccn1)N1CC(=O)N2[C@H](CO)[C@@H](c3ccc(C#CC4CCCCC4)cc3)[C@H]2C1 | -31 | -19
COCC#Cc1ccc([C@@H]2[C@@H](CO)N3C(=O)CN(C(=O)C4CCC4)C[C@@H]23)cc1 | 21 | 17
O=C(Nc1ccc(Cl)cc1)N[C@@H]1CC[C@@H](CCn2cc(-c3ccccc3F)nn2)O[C@@H]1CO | 7 | 8
COc1ccc(NC(=O)N(C)C[C@H]2OCCCC[C@@H](C)Oc3ccc(NS(=O)(=O)c4ccccc4)cc3C(=O)N([C@H](C)CO)C[C@@H]2C)cc1 | 25 | -6
C[C@H](CO)N1C[C@H](C)[C@H](CN(C)Cc2ccc(-c3ccccc3)cc2)Oc2ccc(NC(=O)Nc3ccccc3)cc2CC1=O | -33 | -27
O=C1CN(Cc2ccc(F)cc2)C[C@@H]2[C@H](c3ccc(-c4ccccc4)cc3)[C@@H](CO)N12 | 23 | 7
C[C@H]1CCCCO[C@H](CN(C)Cc2ccc(C(F)(F)F)cc2)[C@@H](C)CN([C@@H](C)CO)C(=O)c2cc(NS(=O)(=O)c3cccs3)ccc2O1 | u | x
Cc1ccc(S(=O)(=O)Nc2ccc3c(c2)C(=O)N([C@H](C)CO)C[C@H](C)[C@@H](CN(C)S(=O)(=O)c2cn(C)cn2)OCCCC[C@@H](C)O3)cc1 | -3 | -1
C[C@@H]1CN([C@@H](C)CO)S(=O)(=O)c2ccc(C#CC3CC3)cc2O[C@H]1CN(C)C(=O)Cc1ccncc1 | -12 | -14
COc1ccc2c3c([nH]c2c1)[C@H](CO)N(Cc1ccccc1)CC31CCN(S(=O)(=O)c2ccc(C)cc2)CC1 | 18 | 14
Cc1cccc(NC(=O)Nc2ccc3c(c2)C(=O)N(C)[C@@H]2CC[C@H](CC(=O)NCc4ccccc4Cl)O[C@@H]2CO3)c1 | -14 | -9
O=C(NCC[C@@H]1CC[C@@H](NC(=O)C2CCCC2)[C@H](CO)O1)c1cc(Cl)cc(Cl)c1 | -12 | -7
CC(C)CC#Cc1ccc2c(c1)O[C@@H](CN(C)C(=O)CC1CC1)[C@@H](C)CN([C@H](C)CO)S2(=O)=O | u | x
C[C@@H]1CN([C@@H](C)CO)C(=O)c2cc(C#CCN(C)C)cnc2O[C@@H]1CN(C)C | 20 | 12
COc1ccccc1NC(=O)N1C[C@@H](O)COC[C@@H]2O[C@@H](CC(=O)N3CCC(Cc4ccccc4)CC3)CC[C@H]21 | -13 | -4
CC(C)CC#Cc1ccc([C@H]2[C@@H](CO)N3CCCCN(S(=O)(=O)c4ccc(F)cc4)C[C@@H]23)cc1 | -23 | -35
C[C@H](CO)N1C[C@H](C)[C@H](CN(C)Cc2ccccc2)OCCCC[C@H](C)Oc2ccc(NC(=O)CCCN(C)C)cc2C1=O | -21 | -12
O=C(C[C@@H]1C=C[C@H](NC(=O)Nc2ccc3c(c2)OCO3)[C@H](CO)O1)NCc1ccc(Cl)cc1 | -1 | 11
O=C(C[C@H]1C=C[C@H](NC(=O)c2ccncc2)[C@@H](CO)O1)Nc1ccccc1 | 13 | 4
O=C(O)C[C@@H]1CC[C@H]2NC[C@@H](O)COC[C@@H]2O1 | 15 | 9
COc1ccc(S(=O)(=O)N(C)C[C@H]2Oc3ccc(NS(=O)(=O)c4ccc(F)cc4)cc3C(=O)N([C@@H](C)CO)C[C@H]2C)cc1 | -6 | 6
C[C@H]1CN([C@@H](C)CO)S(=O)(=O)c2ccc(C#CC3CCCC3)cc2O[C@H]1CN(C)Cc1cccnc1 | u | x
CC(C)NC(=O)N(C)C[C@H]1Oc2ccc(NC(=O)Nc3ccc4c(c3)OCO4)cc2CC(=O)N([C@H](C)CO)C[C@H]1C | 14 | 9
O=C(Cc1ccccn1)NCC[C@@H]1CC[C@@H](NC(=O)Nc2ccc(C(F)(F)F)cc2)[C@H](CO)O1 | -12 | 1
C[C@H](CO)N1C[C@H](C)[C@H](CN(C)Cc2ccc(Oc3ccccc3)cc2)Oc2c(NS(C)(=O)=O)cccc2C1=O | 7 | -2
C[C@@H]1CN([C@@H](C)CO)C(=O)c2cc(C3=CCCC3)cnc2O[C@H]1CN(C)C(=O)c1ccccc1 | -2 | -2
COCC(=O)Nc1ccc2c(c1)OC[C@@H](C)N(Cc1cccnc1)C[C@H](C)[C@@H](OC)CN(C)C2=O | 4 | 1
CNC(=O)C[C@H]1CC[C@@H]2[C@H](COc3ccc(NC(=O)Nc4cccc(C)c4)cc3C(=O)N2C)O1 | 14 | -3
C[C@H](CO)N1C[C@H](C)[C@H](CN(C)Cc2ccc3c(c2)OCO3)Oc2ccc(NS(=O)(=O)c3ccccc3)cc2C1=O | 9 | -2
COc1ccc(S(=O)(=O)Nc2ccc3c(c2)C(=O)N([C@H](C)CO)C[C@@H](C)[C@H](CN(C)C(=O)c2ccncc2)OCCCC[C@@H](C)O3)cc1 | 22 | 4
CC(=O)N(C)C[C@@H]1Oc2ncc(-c3ccc(F)cc3)cc2C(=O)N([C@H](C)CO)C[C@H]1C | 19 | 23
COCC(=O)N(C)C[C@@H]1Oc2cc(-c3cncnc3)ccc2S(=O)(=O)N([C@H](C)CO)C[C@H]1C | 23 | 5
C[C@@H]1CN([C@@H](C)CO)C(=O)Cc2cc(NC(=O)Cc3cn(C)c4ccccc34)ccc2O[C@H]1CN(C)Cc1ccc(C(=O)O)cc1 | 6 | 7
CCC(=O)N[C@H]1C=C[C@H](CC(=O)NCC2CC2)O[C@H]1CO | 9 | 6
CNC[C@H]1Oc2c(NC(=O)Nc3ccccc3)cccc2C(=O)N([C@H](C)CO)C[C@@H]1C | 7 | 0
O=C1CS(=O)(=O)C(c2ccccc2)N1c1ccc(Cl)cc1 (stereo not drawn) | 4 | 7
CC(C)NC(=O)Nc1ccc2c(c1)C(=O)N([C@H](C)CO)C[C@H](C)[C@H](CN(C)Cc1ccccc1)O2 | 2 | -4
COc1ccc2c3c([nH]c2c1)[C@H](CO)N(C(=O)NC1CCCC1)CC31CN(C(=O)Nc2cccc(F)c2)C1 | -18 | -17
CCCC#Cc1ccc2c(c1)O[C@H](CN(C)C(=O)NCCC)[C@H](C)CN([C@@H](C)CO)S2(=O)=O | 2 | -1
C[C@H](CO)N1C[C@H](C)[C@H](CN(C)S(=O)(=O)c2ccccc2)Oc2ccc(NS(=O)(=O)c3ccccc3)cc2C1=O | 12 | 11
O=C([C@H]1[C@H](CO)[C@H]2Cn3c(ccc(-c4cncnc4)c3=O)[C@H]2N1CC1CC1)N1CCCCC1 | -14 | 4
COc1ccc(NC(=O)Nc2ccc3c(c2)CC(=O)N([C@H](C)CO)C[C@H](C)[C@H](CN(C)C(=O)NC(C)C)O3)cc1 | 2 | 1
O=C(Nc1cccc(F)c1)N1C[C@H]2[C@@H](c3ccccc31)[C@H](CO)N2C(=O)C1CCOCC1 | 6 | 6
COc1ccc(NC(=O)N(C)C[C@@H]2OCCCC[C@@H](C)Oc3ccc(NS(=O)(=O)c4ccc(C)cc4)cc3C(=O)N([C@@H](C)CO)C[C@H]2C)cc1 | -5 | -14
CO[C@H]1CC[C@H]2CCOc3c(C#N)cccc3C(=O)N(C)C[C@H](c3ccccc3)CC(=O)N(C)C[C@H]1O2 | 0 | -3
COc1ccc2c3c(n(C)c2c1)[C@@H](CO)N(C(=O)C1CC1)CC31CCN(C(=O)Nc2cccc(F)c2)CC1 | u | x
CO[C@@H]1CN(C)C(=O)c2ccc(NC(=O)Nc3ccccc3)cc2OC[C@H](C)N(C(C)=O)C[C@@H]1C | 3 | 3
C[C@H](CO)N1C[C@H](C)[C@H](CN(C)S(C)(=O)=O)Oc2ncc(-c3ccc(F)cc3)cc2C1=O | 15&7 | 7&7
COc1ccc(S(=O)(=O)Nc2ccc3c(c2)C(=O)N([C@@H](C)CO)C[C@@H](C)[C@H](CN(C)S(C)(=O)=O)O3)cc1 | 19 | 9
CC(C)NC(=O)N(C)C[C@@H]1Oc2ccc(NS(=O)(=O)c3cn(C)cn3)cc2C(=O)N([C@H](C)CO)C[C@@H]1C | 8 | -3
C[C@@H]1CN([C@@H](C)CO)C(=O)c2cc(NC(=O)Nc3ccc(F)cc3)ccc2O[C@@H](C)CCCCO[C@@H]1CN(C)C(=O)C1CCCCC1 | 0 | 2
N#Cc1cccc(-c2ccc(C3[C@@H]4CN(C(=O)Nc5ccc6c(c5)OCO6)C[C@H]3N4)cc2)c1 (stereo partly drawn) | u | -19
COc1ccccc1-c1cnc2c(c1)C(=O)N([C@@H](C)CO)C[C@H](C)[C@@H](CN(C)Cc1ccccc1)O2 | -21 | -17
CN1C(=O)c2cc(NC(=O)c3cnccn3)ccc2OC[C@H]2O[C@H](CC(=O)NC3CCC3)CC[C@@H]21 | 5 | 4
C[C@H]1CN([C@@H](C)CO)C(=O)c2cc(NC(=O)Nc3cccc4ccccc34)ccc2O[C@H]1CN(C)S(=O)(=O)c1ccc(Cl)cc1 | -6 | -3
O=C(N[C@H]1CC[C@H](CCn2cc(C3CC3)nn2)O[C@@H]1CO)c1cccnc1 | 3 | -9
COCC(=O)Nc1ccc2c(c1)OC[C@@H](C)N(C(=O)c1ccccc1F)C[C@H](C)[C@@H](OC)CN(C)C2=O | 2 | -2

Looked up one by one from above, six records:
SMILES | Vaccinia inh | Vaccinia inh Venus
CCCC#Cc1ccc2c(c1)O[C@H](CN(C)C(=O)NCCC)[C@H](C)CN([C@@H](C)CO)S2(=O)=O | 2 | -1
COc1ccc(S(=O)(=O)Nc2ccc3c(c2)C(=O)N([C@@H](C)CO)C[C@@H](C)[C@H](CN(C)S(C)(=O)=O)O3)cc1 | 19 | 9
CN1C(=O)c2cc(NC(=O)c3cnccn3)ccc2OC[C@H]2O[C@H](CC(=O)NC3CCC3)CC[C@@H]21 | 5 | 4
O=C([C@H]1[C@H](CO)[C@H]2Cn3c(ccc(-c4cncnc4)c3=O)[C@H]2N1CC1CC1)N1CCCCC1 | -14 | 4
COc1ccc2c3c(n(C)c2c1)[C@@H](CO)N(C(=O)C1CC1)CC31CCN(C(=O)Nc2cccc(F)c2)CC1 | u | x
COc1ccc(NC(=O)N(C)C[C@@H]2OCCCC[C@@H](C)Oc3ccc(NS(=O)(=O)c4ccc(C)cc4)cc3C(=O)N([C@@H](C)CO)C[C@H]2C)cc1 | -5 | -14

Compound profiles, from the list above. Order of values: Vaccinia inh, Vaccinia inh Venus
O=C(N[C@H]1CC[C@H](CCn2cc(C3CC3)nn2)O[C@@H]1CO)c1cccnc1 is listed as 3, -9
C[C@@H]1CN([C@@H](C)CO)C(=O)Cc2cc(NC(=O)Cc3cn(C)c4ccccc34)ccc2O[C@H]1CN(C)Cc1ccc(C(=O)O)cc1 is listed as 6, 7
C[C@H](CO)N1C[C@H](C)[C@H](CN(C)S(C)(=O)=O)Oc2ncc(-c3ccc(F)cc3)cc2C1=O is listed as 15&7, 7&7

(cont.)
SMILES | Vaccinia inh | Vaccinia inh Venus
C[C@H](CO)N1C[C@H](C)[C@@H](CN(C)S(=O)(=O)c2ccc(F)cc2)Oc2c(NC(=O)c3cnccn3)cccc2C1=O | 7 | 0
COc1ccc(NC(=O)N(C)C[C@@H]2OCCCC[C@@H](C)Oc3ccc(NS(=O)(=O)c4cccs4)cc3C(=O)N([C@H](C)CO)C[C@H]2C)cc1 | -7 | 6
CC=Cc1ccc2n(c1=O)C[C@H]1[C@H](CO)[C@@H](C(=O)NC3CCCC3)N(Cc3nccs3)[C@@H]21 (mixture of isomers) | 18 | 11
CCCNC(=O)N1CC2(CCN(C(=O)CC3CC3)CC2)c2c(n(C)c3cc(OC)ccc23)[C@H]1CO | 9 | -1

Rewritten as tab-separated lines: 3 of the compounds above.
smiles	Vaccinia inh	Vaccinia inh Venus
C[C@H](CO)N1C[C@H](C)[C@@H](CN(C)S(=O)(=O)c2ccc(F)cc2)Oc2c(NC(=O)c3cnccn3)cccc2C1=O	7	0
COc1ccc(NC(=O)N(C)C[C@@H]2OCCCC[C@@H](C)Oc3ccc(NS(=O)(=O)c4cccs4)cc3C(=O)N([C@H](C)CO)C[C@H]2C)cc1	-7	6
CC=Cc1ccc2n(c1=O)C[C@H]1[C@H](CO)[C@@H](C(=O)NC3CCCC3)N(Cc3nccs3)[C@@H]21 (mixture of isomers)	18	11
